A1 apoptosis 2: compounds inhibiting A1, read as caspase activation; 24,000 tested, under 10 active; caspase activation, % (concentration not given with the values); MEF A1-2A-BIM cells, caspase-Glo luminescence, 3 h; percent of clofoctol response, DMSO zero; in the data active = caspase activation above about 5.9%;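 also: wells of about 30 µL received 50 nL stock; the first replicate is given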
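Material: mouse embryonic fibroblasts co-expressing A1 and BIM (A1-2A-BIM), primed for A1 dependence / Quantity: 2500 cells/well / Buffer or medium: RPMI-1640 growth medium with 10% FBS / Doses: 50 nL compound per well, pinned / Schedule: 3 h compound exposure at 37 °C / Signal: Caspase-Glo luminescence (DEVD substrate) / Measure: Caspase-3/7 activation, seen as rise in luminescence signal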
* hit, by the source's call.

SMILES	A1 apoptosis 2
CCO[C@H]1OC(C(=O)N2CCOCC2)=C[C@@H](c2cn(C(C)=O)c3ccccc23)[C@@H]1CCCO	0.3
C[C@H](CO)N1C[C@H](C)[C@@H](CN(C)Cc2ccc(Cl)c(Cl)c2)Oc2c(NS(C)(=O)=O)cccc2C1=O	-1.1
Cc1noc(C)c1NC(=O)N(C)C[C@H]1Oc2ccc(NC(=O)Cn3cnnn3)cc2C(=O)N([C@@H](C)CO)C[C@H]1C	-0.6
C[C@H](CO)N1C[C@H](C)[C@@H](CN(C)Cc2ccc(Cl)c(Cl)c2)Oc2ccc(NS(=O)(=O)c3cccs3)cc2CC1=O	1.1
C[C@@H]1CN([C@@H](C)CO)C(=O)Cc2cc(NC(=O)Nc3ccc(F)cc3)ccc2O[C@H]1CN(C)S(=O)(=O)c1cccs1	-0.3
C[C@@H]1CCCCO[C@@H](CN(C)C(=O)c2ccccc2)[C@H](C)CN([C@@H](C)CO)C(=O)c2cc(NC(=O)Nc3ccc(C(F)(F)F)cc3)ccc2O1	0.4
COc1ccc(NC(=O)Nc2ccc3c(c2)C(=O)N([C@H](C)CO)C[C@H](C)[C@@H](CN(C)Cc2ccccc2)OCCCC[C@H](C)O3)cc1	0.1
COc1ccc(S(=O)(=O)N(C)C[C@@H]2OCCCC[C@H](C)Oc3ccc(NC(=O)CCCN(C)C)cc3C(=O)N([C@H](C)CO)C[C@H]2C)cc1	0.7
CC(C)NC(=O)N(C)C[C@@H]1Oc2ccc(NC(=O)Nc3ccccc3)cc2CC(=O)N([C@H](C)CO)C[C@@H]1C	1.6
C[C@@H]1CN([C@H](C)CO)C(=O)Cc2cc(NC(=O)Nc3ccc(C(F)(F)F)cc3)ccc2O[C@@H]1CN(C)C(=O)Nc1cccc2ccccc12	0.2
COc1ccc([Si](C)(C)[C@H]2[C@H](CCn3cc([C@H](O)c4ccccc4)nn3)O[C@@]3(C(=O)N(Cc4ccc(N5CCC5=O)cc4)c4ccccc43)[C@@H]2C)cc1	-0.7
O=S(=O)(NC1CCN(Cc2ccc(OCCO)cc2)CC1)c1ccc(-c2ccccc2)cc1	-0.5
CC(C)NC(=O)N(C)C[C@H]1OCCCC[C@H](C)Oc2ccc(NC(=O)Cc3ccccc3)cc2C(=O)N([C@H](C)CO)C[C@H]1C	-0.6
COc1ccc(NC(=O)N(C)C[C@H]2Oc3c(NC(=O)CCCCCC(=O)Nc4ccccc4N)cccc3C(=O)N([C@H](C)CO)C[C@H]2C)cc1	0.7
C[C@@H]1CCCCO[C@@H](CN(C)CC2CCCCC2)[C@H](C)CN([C@@H](C)CO)C(=O)c2cc(NC(=O)c3ccccc3)ccc2O1	0.2
Cc1noc(C)c1NC(=O)Nc1ccc2c(c1)CC(=O)N([C@H](C)CO)C[C@@H](C)[C@@H](CN(C)C)O2	2.2
CC(C)NC(=O)N(C)C[C@@H]1OCc2cn(nn2)CCCC(=O)N([C@H](C)CO)C[C@@H]1C	0.1
C[C@@H]1CN([C@@H](C)CO)C(=O)c2cc(NC(=O)c3ccncc3)ccc2O[C@H]1CN(C)Cc1ccccc1	0.6
C[C@@H]1CCCCO[C@H](CN(C)S(=O)(=O)c2ccc(Cl)cc2)[C@@H](C)CN([C@H](C)CO)C(=O)c2cc(NC(=O)Nc3ccc(C(F)(F)F)cc3)ccc2O1	0.6
CNC[C@@H]1Oc2ccc(NC(=O)C3CC3)cc2C(=O)N([C@@H](C)CO)C[C@H]1C	0.0
C[C@@H]1CN([C@@H](C)CO)C(=O)c2cc(NC(=O)Nc3ccccc3)ccc2O[C@H]1CN(C)Cc1ccncc1	0.1
C=CCNC(=O)[C@@H]1[C@H]2C(=O)O[C@H](c3ccccc3)[C@H](c3ccccc3)N2[C@H](c2ccccc2OCCO)[C@@]12C(=O)Nc1ccc(C#Cc3ccc(OC)cc3)cc12	0.3
C[C@H]1CN([C@@H](C)CO)C(=O)Cc2cc(NC(=O)Nc3ccc4c(c3)OCO4)ccc2O[C@@H]1CN(C)Cc1ccc(C(=O)Nc2ccccc2N)cc1	-0.5
Cc1noc(C)c1NC(=O)N(C)C[C@H]1OCCCC[C@@H](C)Oc2ccc(NS(=O)(=O)c3ccccc3)cc2C(=O)N([C@H](C)CO)C[C@@H]1C	0.0
C[C@@H]1CN([C@@H](C)CO)C(=O)c2cc(NC(=O)c3ccncc3)ccc2O[C@@H]1CN(C)C	0.4
C[C@@H]1CN([C@@H](C)CO)C(=O)Cc2cc(NC(=O)Cc3cn(C)c4ccccc34)ccc2O[C@H]1CN(C)Cc1ccncc1	-0.2
C[C@H]1CN([C@@H](C)CO)C(=O)c2cc(NC(=O)Nc3ccc4c(c3)OCO4)ccc2O[C@H]1CN(C)Cc1ccc(Oc2ccccc2)cc1	-1.2
C[C@@H]1CN([C@@H](C)CO)C(=O)Cc2cc(NS(=O)(=O)c3cn(C)cn3)ccc2O[C@H]1CN(C)CC1CCCCC1	-1.1
CC(C)(C)[C@H]1C=C(C(=O)NC2CC2)O[C@@H](OCc2ccc(CO)cc2)C1	0.3
C[C@@H]1CCCCO[C@H](CN(C)S(=O)(=O)c2ccc(Cl)cc2)[C@@H](C)CN([C@H](C)CO)C(=O)c2cc(NC(=O)CCCN(C)C)ccc2O1	0.2

Single entries from above:
A1 apoptosis 2 result of C[C@H]1CN([C@@H](C)CO)C(=O)c2cc(NC(=O)Nc3ccc4c(c3)OCO4)ccc2O[C@H]1CN(C)Cc1ccc(Oc2ccccc2)cc1 stands at -1.2
A1 apoptosis 2 result of C[C@H]1CN([C@@H](C)CO)C(=O)Cc2cc(NC(=O)Nc3ccc4c(c3)OCO4)ccc2O[C@@H]1CN(C)Cc1ccc(C(=O)Nc2ccccc2N)cc1 stands at -0.5

Other results follow:
SMILES	A1 apoptosis 2
Cc1noc(C)c1S(=O)(=O)Nc1ccc2c(c1)C(=O)N([C@@H](C)CO)C[C@@H](C)[C@H](CN(C)Cc1ccc(C(F)(F)F)cc1)OCCCC[C@H](C)O2	-0.2
COc1ccc(CN(C)C[C@H]2Oc3ccc(NC(=O)Cc4ccccc4)cc3CC(=O)N([C@@H](C)CO)C[C@@H]2C)cc1	-0.3
C[C@@H]1CN([C@H](C)CO)C(=O)Cc2cc(NC(=O)Cc3cn(C)c4ccccc34)ccc2O[C@@H]1CN(C)S(=O)(=O)c1cccs1	-0.8
C[C@@H]1CCCCO[C@@H](CN(C)C)[C@H](C)CN([C@@H](C)CO)C(=O)c2cc(NS(=O)(=O)c3ccccc3)ccc2O1	-1.1
C[C@@H]1CN([C@H](C)CO)C(=O)c2cccc(NC(=O)c3nc4ccccc4s3)c2O[C@@H]1CN(C)C(=O)NC1CCCCC1	1.6
C[C@H](CO)N1C[C@H](C)[C@H](CN(C)C(=O)Nc2ccc(F)cc2)Oc2c(NS(=O)(=O)c3ccc(Cl)cc3)cccc2C1=O	-0.4
CNC[C@H]1Oc2ccc(NC(=O)CCC(F)(F)F)cc2C(=O)N([C@H](C)CO)C[C@@H]1C	-1.0
C[C@@H]1CN([C@@H](C)CO)C(=O)c2cc(NS(=O)(=O)c3cccs3)ccc2O[C@@H](C)CCCCO[C@@H]1CN(C)C(=O)c1ccncc1	0.4
COc1ccc(NC(=O)N(C)C[C@@H]2OCCCC[C@@H](C)Oc3ccc(NC(=O)c4ccncc4)cc3C(=O)N([C@H](C)CO)C[C@@H]2C)cc1	0.3
C[C@@H]1CN([C@H](C)CO)C(=O)c2cc(NS(C)(=O)=O)ccc2O[C@@H](C)CCCCO[C@@H]1CN(C)C(=O)c1ccncc1	-0.1
C[C@@H]1CCCCO[C@@H](CN(C)C(=O)CCCN(C)C)[C@@H](C)CN([C@H](C)CO)C(=O)c2cc(NC(=O)NC3CCCCC3)ccc2O1	0.6
COc1ccc(CN(C)C[C@H]2Oc3c(NC(=O)NC4CCCCC4)cccc3C(=O)N([C@@H](C)CO)C[C@H]2C)cc1	0.8
Cc1noc(C)c1NC(=O)N(C)C[C@H]1OCCCC[C@H](C)Oc2ccc(NS(C)(=O)=O)cc2C(=O)N([C@@H](C)CO)C[C@H]1C	1.6
Cc1ccc(S(=O)(=O)Nc2ccc3c(c2)CC(=O)N([C@H](C)CO)C[C@H](C)[C@H](CN(C)Cc2ccccc2)O3)cc1	-1.0
C[C@H]1CN([C@@H](C)CO)C(=O)c2cc(NS(=O)(=O)c3cn(C)cn3)ccc2O[C@H]1CN(C)C(=O)Nc1ccc(F)cc1	1.2

4 of these compounds in another layout:
Cc1noc(C)c1S(=O)(=O)Nc1ccc2c(c1)C(=O)N([C@@H](C)CO)C[C@@H](C)[C@H](CN(C)Cc1ccc(C(F)(F)F)cc1)OCCCC[C@H](C)O2
  A1 apoptosis 2 = -0.2
COc1ccc(CN(C)C[C@H]2Oc3ccc(NC(=O)Cc4ccccc4)cc3CC(=O)N([C@@H](C)CO)C[C@@H]2C)cc1
  A1 apoptosis 2 = -0.3
C[C@@H]1CN([C@H](C)CO)C(=O)Cc2cc(NC(=O)Cc3cn(C)c4ccccc34)ccc2O[C@@H]1CN(C)S(=O)(=O)c1cccs1
  A1 apoptosis 2 = -0.8
C[C@@H]1CCCCO[C@@H](CN(C)C)[C@H](C)CN([C@@H](C)CO)C(=O)c2cc(NS(=O)(=O)c3ccccc3)ccc2O1
  A1 apoptosis 2 = -1.1

Further records
SMILES	A1 apoptosis 2
C[C@@H]1CN([C@@H](C)CO)C(=O)c2cc(NC(=O)Nc3ccc4c(c3)OCO4)ccc2O[C@H]1CN(C)Cc1ccc2c(c1)OCO2	0.6
Cc1noc(C)c1S(=O)(=O)N(C)C[C@H]1OCCCC[C@@H](C)Oc2ccc(NC(=O)Nc3ccc4c(c3)OCO4)cc2C(=O)N([C@@H](C)CO)C[C@H]1C	0.1
Cc1noc(C)c1S(=O)(=O)Nc1ccc2c(c1)CC(=O)N([C@@H](C)CO)C[C@@H](C)[C@H](CN(C)S(=O)(=O)c1cn(C)cn1)O2	-0.6
C[C@H]1CN([C@@H](C)CO)C(=O)c2cc(NC(=O)CCCN(C)C)ccc2O[C@H]1CN(C)C(=O)Nc1ccccc1	1.4
COCCOC(=O)N1C(=O)[C@@]2(c3cc(C#CC4(O)CCCCCC4)ccc31)[C@H](C(N)=O)[C@H]1C(=O)O[C@H](c3ccccc3)[C@H](c3ccccc3)N1[C@@H]2c1ccccc1OCCO	-1.4
COc1ccc(S(=O)(=O)N(C)C[C@H]2OCCCC[C@@H](C)Oc3ccc(NS(=O)(=O)c4c(C)noc4C)cc3C(=O)N([C@H](C)CO)C[C@@H]2C)cc1	-0.7
C[C@@H]1CCCCO[C@@H](CN(C)Cc2ccc(C(=O)O)cc2)[C@H](C)CN([C@@H](C)CO)C(=O)c2cc(NS(=O)(=O)c3cccs3)ccc2O1	0.7
Cc1noc(C)c1S(=O)(=O)Nc1ccc2c(c1)CC(=O)N([C@@H](C)CO)C[C@H](C)[C@@H](CN(C)C(=O)Nc1ccc(F)cc1)O2	1.7
COc1ccc(NC(=O)N(C)C[C@H]2Oc3c(NS(C)(=O)=O)cccc3C(=O)N([C@H](C)CO)C[C@H]2C)cc1	-1.0
C[C@@H]1CN([C@@H](C)CO)C(=O)c2cc(NS(C)(=O)=O)ccc2O[C@@H](C)CCCCO[C@@H]1CN(C)Cc1ccncc1	1.2
C[C@@H]1CN([C@H](C)CO)C(=O)c2cccc(NC(=O)NC3CCCCC3)c2O[C@H]1CN(C)C(=O)NC1CCCCC1	1.9
COc1cccc(NC(=O)N(C)C[C@@H]2OCc3cn(nn3)CCCC(=O)N([C@H](C)CO)C[C@@H]2C)c1	0.7
COc1ccc(NC(=O)N(C)C[C@@H]2Oc3ccc(NC(=O)Nc4ccc(C(F)(F)F)cc4)cc3CC(=O)N([C@@H](C)CO)C[C@H]2C)cc1	0.9
Cc1noc(C)c1NC(=O)Nc1ccc2c(c1)C(=O)N([C@H](C)CO)C[C@@H](C)[C@@H](CN(C)Cc1ccc(C(=O)Nc3ccccc3N)cc1)O2	0.4
C[C@@H]1CN([C@@H](C)CO)C(=O)CCCn2nncc2CO[C@@H]1CN(C)Cc1ccc2c(c1)OCO2	1.3
C[C@@H]1CN([C@H](C)CO)C(=O)CCCn2cc(nn2)CO[C@H]1CN(C)S(=O)(=O)c1ccc(Oc2ccccc2)nc1	-0.4
Cc1ccsc1/C=N/NC(=O)c1cccc(C(=O)NO)c1	-3.3
C[C@H](CO)N1C[C@H](C)[C@@H](CN(C)S(C)(=O)=O)Oc2ccc(NC(=O)CCCN(C)C)cc2C1=O	-0.6
C[C@@H]1CCCCO[C@@H](CN(C)C(=O)c2ccccc2)[C@@H](C)CN([C@H](C)CO)C(=O)c2cc(NC(=O)Nc3cccc4ccccc34)ccc2O1	-0.7
COc1ccc(NC(=O)N(C)C[C@H]2Oc3ccc(N(C)C)cc3CC(=O)N([C@@H](C)CO)C[C@@H]2C)cc1	0.6
CNC[C@@H]1Oc2c(NS(=O)(=O)c3c(C)noc3C)cccc2C(=O)N([C@H](C)CO)C[C@@H]1C	-0.2
COc1ccc(S(=O)(=O)Nc2ccc3c(c2)CC(=O)N([C@@H](C)CO)C[C@H](C)[C@@H](CN(C)Cc2ccc(C(=O)Nc4ccccc4N)cc2)O3)cc1	-0.2
C[C@H](CO)N1C[C@H](C)[C@H](CN(C)Cc2ccncc2)Oc2ncc(C#CC(C)(C)O)cc2C1=O	1.6
COc1ccc(S(=O)(=O)N(C)C[C@H]2Oc3ccc(NC(=O)C4CCCCC4)cc3CC(=O)N([C@H](C)CO)C[C@@H]2C)cc1	-1.3
Cc1noc(C)c1NC(=O)Nc1ccc2c(c1)CC(=O)N([C@H](C)CO)C[C@H](C)[C@H](CN(C)C(=O)NC1CCCCC1)O2	-0.4
Cc1noc(C)c1S(=O)(=O)Nc1ccc2c(c1)CC(=O)N([C@@H](C)CO)C[C@H](C)[C@H](CN(C)S(=O)(=O)c1ccc(F)cc1)O2	-0.1

This is a subset; the hit share may differ from the screen's.
